Bioassay records as filed in PubChem BioAssay.
TRPML1 agonist: qHTS for Agonists of the Human Mucolipin Transient Receptor Potential 1 (TRPML1) | Mucolipin-1 (Homo sapiens), Q9GZU1 | activation, % (concentration not given with the values) | TRPML1-expressing cells, Ca2+ dye fluorescence, FDSS; host cell line not named in the record; reference of the full effect not given here | 410,000 compounds, 0.12% hits; in the data active = activation above about 50%; inconclusive = about 30% to 50%; inactive = below about 30%; note: 0% is about no effect; the text of the record puts the active cut at 80%
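Cells: TRPML1-DL, 1X Tet inducer, ~16 h at 37 degrees C/5% CO2. Dye: ABD Ca8 no-wash + quencher, 45-90 min RT. Read: 10 s baseline, compound add, 110 s agonist phase; 54-4 EC80 (4uM final), 110 s antagonist phase.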
Sfp PPTase inh: qHTS Assay for Inhibitors of Bacillus subtilis Sfp phosphopantetheinyl transferase (PPTase); 4'-phosphopantetheinyl transferase ffp (Bacillus subtilis), Q9F4F7; Biochemical Sfp PPTase activity, qHTS; Potency, µM, for the others: max response, negative = inhibition, hits mostly inhibitors; 310,000 compounds, 3.5% hits; active = well fitted inhibition curve with a large enough effect; inconclusive = small, poorly fitted or top-dose-only effect, or another doubt; inactive = no such curve, though single readings can be large or run the other way;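 note: the enzyme is Sfp with the accession as filed and its product quenches rhodamine fluorescence; potency is the fitted concentration of half-maximal effect; 0% = enzyme reaction without inhibitor and -100% = no enzyme wells; top concentration of the series not given in the record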
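Fluorescence-quenching assay with 15 nM Sfp, 5 uM rhodamine-CoA and 12.5 uM BHQ-2-labelled ybbR peptide in pH 7.6 Hepes/MgCl2 buffer. Enzyme was pre-incubated with compound for 15 min at room temperature. Rate was taken from the 30-min fluorescence change (525/598 nm).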
TRPML1 blocker: qHTS for Inhibitors of the Human Mucolipin Transient Receptor Potential 1 (TRPML1) | 390,000 compounds, 0.02% hits | TRPML1-inducible cells, Ca2+ dye fluorescence, FDSS; hits give low values; inhibition of EC80 agonist-evoked calcium signal | activity change, negative = inhibition, % (concentration not given with the values) | AID 624415, 2012; in the data active means activity change below about -50%; inconclusive means about -30% to -50%; inactive means above about -30%;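 note: stimulus is agonist 54-4 at its EC80 concentration; % is set by controls: 0 for no effect and ±100 for the full control effect; the text of the record puts the active cut at -80%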
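TRPML1-DL cells, Tet-induced overnight (~16 h, 37 °C) at 1,500 cells/well, were loaded with Ca8 no-wash dye plus quencher for 45-90 min at room temperature. Compounds were pinned during FDSS kinetic reading; agonist 54-4 at EC80 (4 uM final) then added.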
ClpP mod: qHTS Assay for Activators of ClpP; ATP-dependent Clp protease proteolytic subunit (Bacillus subtilis (strain 168)), P80244; purified B. subtilis ClpP, FRET peptide cleavage, 20 min; Potency, µM (doses to about 57.5 µM), without a hit: at the top dose activity change, negative = active; 340,000 compounds, 1.9% hits; AID 651965, 2013; active = well fitted falling curve with a large enough effect; inconclusive = small, poorly fitted or top-dose-only effect; inactive = no such curve, though single readings can be large or run the other way; note: potency is the fitted concentration of half-maximal effect; the source files actives as falling curves though it sought activators and does not explain the sign; nearly all actives have a fitted effect of over 65% in size; many hits overshoot -100%
Target sequence (P80244 whole entry, looked up): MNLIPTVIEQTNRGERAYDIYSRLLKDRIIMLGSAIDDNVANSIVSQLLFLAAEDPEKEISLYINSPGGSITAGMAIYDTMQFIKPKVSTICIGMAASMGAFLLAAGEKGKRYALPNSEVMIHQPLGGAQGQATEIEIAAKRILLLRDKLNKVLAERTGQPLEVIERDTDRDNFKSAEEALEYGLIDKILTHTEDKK
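Buffer: 100 mM Tris/HCl pH8, 100 mM KCl, 0.05% low protease BSA, 2.5% glycerol, 0.01% Tween-20. ClpP 10 microg/mL final; 20 min RT; delta FRET normalized to ADEP and DMSO controls.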
Menin MLL FP FL: qHTS Assay for Inhibitors Targeting the Menin-MLL Interaction in MLL Related Leukemias: Competition With Fluorescein Labeled MLL-derived Peptide; 290,000 tested, under 10 active; FP activity change, % at 61.4 µM; Fluorescence polarization, fluorescein-MLL peptide displacement from menin; AID 1766, 2009; inconclusive = falling polarisation curve, or a change in total fluorescence; inactive = total fluorescence flat and polarisation flat or rising; no compound was filed as active; the % refers to the polarisation; negative = inhibition;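 note: % of control where 0% means no effect; inhibitors lower the polarisation; unlabelled MLL peptide was the positive control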
TRPV1 PAM: HTS Assay for Compounds that Act as Potentiators of the Vanilloid Receptor 1; 320,000 compounds, 0.02% hits; AID 540277, 2011; Transient receptor potential cation channel subfamily V member 1 (Homo sapiens), Q8NER1; TRPV1-expressing cells, Fluo-8 calcium influx, capsaicin EC20 potentiation; host cell line not named in the record; control for the full effect not named in the record; potentiation, % at 8.33 µM; active means potentiation above 80%; inconclusive means 30% to 80%; inactive means below 30%; note: 0% is about no effect
Target sequence (Q8NER1 whole entry, looked up): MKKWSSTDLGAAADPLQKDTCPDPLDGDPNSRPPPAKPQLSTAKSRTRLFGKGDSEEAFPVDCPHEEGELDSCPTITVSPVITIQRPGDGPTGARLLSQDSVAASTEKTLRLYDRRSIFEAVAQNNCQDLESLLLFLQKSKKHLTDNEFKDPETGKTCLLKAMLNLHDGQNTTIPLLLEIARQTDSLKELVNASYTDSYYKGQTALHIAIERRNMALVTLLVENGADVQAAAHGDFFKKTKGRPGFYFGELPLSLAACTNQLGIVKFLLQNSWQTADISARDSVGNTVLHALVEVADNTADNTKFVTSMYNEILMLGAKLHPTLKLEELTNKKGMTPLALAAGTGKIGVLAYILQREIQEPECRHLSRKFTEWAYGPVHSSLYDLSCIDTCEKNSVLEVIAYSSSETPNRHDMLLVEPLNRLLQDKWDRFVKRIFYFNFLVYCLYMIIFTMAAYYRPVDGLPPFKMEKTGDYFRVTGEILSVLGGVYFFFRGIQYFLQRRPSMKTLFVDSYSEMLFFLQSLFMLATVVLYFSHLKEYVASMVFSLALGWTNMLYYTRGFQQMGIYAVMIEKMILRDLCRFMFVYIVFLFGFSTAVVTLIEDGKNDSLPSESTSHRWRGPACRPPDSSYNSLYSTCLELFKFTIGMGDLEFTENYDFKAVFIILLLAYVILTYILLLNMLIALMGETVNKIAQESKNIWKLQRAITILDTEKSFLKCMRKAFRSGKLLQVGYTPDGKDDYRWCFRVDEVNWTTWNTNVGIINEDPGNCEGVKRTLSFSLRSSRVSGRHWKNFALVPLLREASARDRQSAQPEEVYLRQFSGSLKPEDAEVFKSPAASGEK
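Fluo-8 calcium influx in TRPV1-expressing cells, kinetic read (ex 480/em 520 nm). Compound added and read 3 min for agonist activity, followed by capsaicin at EC20 final and 2 min further read for enhancement.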
PINK1 modulator: A Quantitative High throughput Screen to Identify Chemical Modulators of PINK1 Expression; PINK1 immunofluorescence, high-content cytometry, 24 h; Potency, µM (titrated, usually from 76.6 µM), inactives show top-dose activation (PINK1 increase), actives largely listed as activators; 410,000 compounds, 0.2% hits; AID 624263, 2012; active = well fitted activation curve with a large enough effect; inconclusive = small, poorly fitted or top-dose-only effect; inactive = flat fitted curve, though single readings scatter; cell line not stated here;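 note: potency is the fitted concentration of half-maximal effect; % of control where 0% means no effect; nearly all actives have a fitted effect of over 65% in size; a mitochondrial uncoupler was the plate control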
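A stable cell line was treated with compounds at 5 concentrations for 24 hours, with CCCP as control. PINK1 levels and mitochondrial localization were measured by immunofluorescence with mitochondrial, cell and nuclear markers after fixation, read by laser-scanning cytometry.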
The depositor's hits bear a star; & = joins results of further samples; [ ] = another dose, or the depositor's remark.

Cc1c(C(=O)Nc2cccc(S(=O)(=O)N3CCOCC3)c2)oc2ccc(Br)cc12 was read as TRPML1 agonist 0.1, TRPML1 blocker -14, ClpP mod -0.1% and PINK1 modulator 7.7%.
Screening O=C(CCS(=O)(=O)c1ccc(Br)cc1)N1CCN(c2ccccc2)CC1 returned TRPML1 agonist -0.2, Sfp PPTase inh -6%, TRPML1 blocker 5, ClpP mod 0.2%, Menin MLL FP FL 0.6, TRPV1 PAM 2 and PINK1 modulator -0.9%.
Screening CCN(C(=O)CN1CCC(C(=O)OC)CC1)c1c(N)n(Cc2ccccc2)c(=O)[nH]c1=O returned TRPML1 agonist 0.5, TRPML1 blocker -2, ClpP mod -0.6% and PINK1 modulator 1.6%.
`CCOc1ccc(C(=O)NCCc2csc(-c3cccc(C)c3)n2)cc1` gave TRPML1 agonist 6.5, TRPML1 blocker -6, ClpP mod -2.1% and PINK1 modulator -1.2%.
Screening Cc1ccccc1OCC1Cc2c(nc(N)c(C#N)c2N)O1 (stereo not given) returned TRPML1 agonist -0.4, Sfp PPTase inh 8%, TRPML1 blocker 1, ClpP mod 1.0%, Menin MLL FP FL 1.4, TRPV1 PAM -2 and PINK1 modulator 2.3%.
For Cc1cc(C(=O)N2CCN(c3ccc(F)cc3)CC2)c2c(C)nn(-c3cccc(Cl)c3C)c2n1 the results were TRPML1 agonist 0.8, TRPML1 blocker 6, ClpP mod -12% and PINK1 modulator -0.8%.
Screening CN(CC(=O)Nc1ccc(F)c(F)c1F)C(=O)/C=C/c1ccc(Cl)cc1 returned TRPML1 agonist 0.3, Sfp PPTase inh -7%, TRPML1 blocker -17, ClpP mod 0.8%, Menin MLL FP FL 6.8, TRPV1 PAM -24 and PINK1 modulator 15%.
`CCOC(=O)c1cc(C)sc1NC(=O)C1CCC1` gave TRPML1 agonist 1.8, Sfp PPTase inh -24%, TRPML1 blocker 9, ClpP mod -10%, Menin MLL FP FL 1.3, TRPV1 PAM -5 and PINK1 modulator -1.4%[38.3 µM].
CCOc1ccccc1CNC(=O)Cn1c(=O)oc2ccccc21 was read as TRPML1 agonist -0.5, Sfp PPTase inh 27%, TRPML1 blocker 1, ClpP mod -2.4%, Menin MLL FP FL -0.2, TRPV1 PAM 7 and PINK1 modulator 0.2%.
For Clc1nnc(N2CCCCC2)c2ccccc12 the results were TRPML1 agonist 0.0, Sfp PPTase inh 27%, TRPML1 blocker -4, Menin MLL FP FL 0.0, TRPV1 PAM 5 and PINK1 modulator -3.8%.
For COc1ccc(C(=O)c2c(C)oc3ccc(O)cc23)c(OC)c1 the results were TRPML1 agonist 1.6, Sfp PPTase inh -8%, TRPML1 blocker 4, Menin MLL FP FL 4.1, TRPV1 PAM 0 and PINK1 modulator 5.8%.
Screening O=C(Nc1ccccc1C(=O)N1CCN(Cc2ccccc2)CC1)c1ccccc1 returned TRPML1 agonist 0.1, Sfp PPTase inh 6%, TRPML1 blocker -11, ClpP mod -1.3%, TRPV1 PAM 4 and PINK1 modulator 1.4%.
Cc1ccccc1OCCSc1nnc(C)n1-c1ccccc1 was read as TRPML1 agonist 2.1, Sfp PPTase inh 12%, TRPML1 blocker 8, ClpP mod 0.3%, Menin MLL FP FL 3.7, TRPV1 PAM 3 and PINK1 modulator 8.0%[38.3 µM].
Screening S=c1[nH]nc(-c2cccs2)n1/N=C/c1cn(-c2ccccc2)nc1-c1cccs1 returned TRPML1 agonist 1.1, Sfp PPTase inh -3%, TRPML1 blocker -10, Menin MLL FP FL 1.2, TRPV1 PAM -1 and PINK1 modulator 6.5%.
For Cc1ccc(C)c(N2CCN(C(=O)CSc3ccsc3[N+](=O)[O-])CC2)c1 the results were TRPML1 agonist -0.8, Sfp PPTase inh 3%, TRPML1 blocker -5, ClpP mod 1.1%, Menin MLL FP FL -0.5, TRPV1 PAM 1 and PINK1 modulator -1.2%.
For CCCCn1c(N)c(N(CC)C(=O)CN2C(=O)NC(C)(c3ccccc3)C2=O)c(=O)[nH]c1=O (stereo not given) the results were TRPML1 agonist -0.1, TRPML1 blocker 27, ClpP mod -4.3% and PINK1 modulator 2.9%.
O=C(CCn1cnnn1)Nc1ccccc1F was read as TRPML1 agonist 0.8, Sfp PPTase inh 19%, TRPML1 blocker 13, ClpP mod -0.7%, Menin MLL FP FL -3.0, TRPV1 PAM 11 and PINK1 modulator 1.0%.
`CCOc1ccc(CCNC(=O)COC(=O)c2ccc(S(=O)(=O)N3CCCC3)cc2)cc1OCC` gave TRPML1 agonist 1.4, TRPML1 blocker -5, TRPV1 PAM 3 and PINK1 modulator -0.3%.
COC(=O)c1sccc1NC(=S)NCc1ccc(Cl)cc1 was read as TRPML1 agonist -1.1, Sfp PPTase inh -8%, TRPML1 blocker 4, Menin MLL FP FL 3.7, TRPV1 PAM -8 and PINK1 modulator 2.7%.
For COC(=O)c1ccc(CNC(=O)COC(=O)C2CCC(C(C)(C)C)CC2)cc1 (stereo not given) the results were TRPML1 agonist 2.5, Sfp PPTase inh 15%, TRPML1 blocker -9, ClpP mod 0.9%, Menin MLL FP FL 3.2, TRPV1 PAM -16 and PINK1 modulator 4.9%.
`C/C(CC(C)(C)c1ccccc1)=N\NS(=O)(=O)c1ccccc1` gave TRPML1 agonist 1.3, Sfp PPTase inh 9%, TRPML1 blocker 3, Menin MLL FP FL 1.0, TRPV1 PAM inconclusive and PINK1 modulator -1.1%.
Screening Cc1ccc(NC(=S)NC2CC3CCCC(C2)N3Cc2cccs2)cc1 (stereo not given) returned TRPML1 agonist 1.0, Sfp PPTase inh 18%, TRPML1 blocker 13, ClpP mod -9.0%, Menin MLL FP FL -5.5 and TRPV1 PAM 7.
Screening CCCCn1c(=O)[nH]c(=O)c2c1nc(-c1cccc(OC)c1)n2C returned TRPML1 agonist 0.1, Sfp PPTase inh -5%, TRPML1 blocker 24, Menin MLL FP FL 3.2, TRPV1 PAM -19 and PINK1 modulator 1.2%.
N#C/C(C(=O)N1CCCC1)=C1/N=C(N)c2ccccc21 was read as TRPML1 agonist -0.3, Sfp PPTase inh -12%, TRPML1 blocker 7, ClpP mod -23%, Menin MLL FP FL 7.9, TRPV1 PAM -2 and PINK1 modulator -1.1%.
Screening Cc1ccc(C#CC[N+]2(CC#Cc3ccc(C)cc3)CCCCC2)cc1 returned TRPML1 agonist 1.7, Sfp PPTase inh -8%, TRPML1 blocker 14, ClpP mod -5.2%, Menin MLL FP FL 1.0, TRPV1 PAM -9 and PINK1 modulator inconclusive.
For CCOc1ccc(C(=O)C(C)OC(=O)Cn2c(C)csc2=O)cc1 (stereo not given) the results were TRPML1 agonist -0.3, TRPML1 blocker -11, TRPV1 PAM 0 and PINK1 modulator 0.7%.
CC(C)Cn1c(N)c(C(=O)COC(=O)c2ccccc2F)c(=O)n(C)c1=O was read as TRPML1 agonist 0.8, Sfp PPTase inh 10%, TRPML1 blocker -1, Menin MLL FP FL 0.9, TRPV1 PAM -1 and PINK1 modulator 0.5%.
`CNc1oc(-c2ccccc2F)nc1S(=O)(=O)c1ccc(C)cc1` gave TRPML1 agonist 2.3, Sfp PPTase inh -16%, TRPML1 blocker -2, ClpP mod 10µM*, TRPV1 PAM 13 and PINK1 modulator 1.3%.
Cc1ccc(S(=O)(=O)NCC2CCC(C(=O)O)CC2)cc1 (stereo not given) was read as TRPML1 agonist -0.4, Sfp PPTase inh 7%, TRPML1 blocker 4, ClpP mod 0.0%, Menin MLL FP FL -1.5, TRPV1 PAM 15 and PINK1 modulator 0.9%[38.3 µM].
For C#CCOc1ccc(C2CC(=O)Nc3c2c(C)nn3-c2nc(C)cc(C)n2)cc1 (stereo not given) the results were TRPML1 agonist -0.6, TRPML1 blocker -8, ClpP mod 2.2% and PINK1 modulator 3.6%.
For COc1cccc(CN2CCC2(C)C(=O)Nc2ccc(C)cc2)c1F (stereo not given) the results were TRPML1 agonist -0.6, ClpP mod -0.7% and PINK1 modulator 2.6%.
`COC(=O)[C@H](C)[C@H]1C[C@]1(C)[C@H](NC(=O)OCc1ccccc1)c1ccccc1` gave TRPML1 agonist 1.4, Sfp PPTase inh -2%&14%, TRPML1 blocker 14, ClpP mod 0.7%, Menin MLL FP FL 3.1&-5.3, TRPV1 PAM 0 and PINK1 modulator 3.7%.
For O=C(c1cccs1)N(Cc1ccccn1)Cc1ccco1 the results were TRPML1 agonist 0.6, Sfp PPTase inh 79µM*, TRPML1 blocker -11, ClpP mod -0.2%, Menin MLL FP FL 1.1, TRPV1 PAM 6 and PINK1 modulator 0.1%[38.3 µM].
For COc1cc(-c2noc(-c3cccc(Cl)c3)n2)cc(OC)c1OC the results were TRPML1 agonist -0.1, Sfp PPTase inh -9%, TRPML1 blocker -10, ClpP mod 1.3% and Menin MLL FP FL inconclusive.
For COc1ccc(CC(=O)N[C@@H](CCSC)C(=O)N2CCC3(CC2)NCCc2[nH]cnc23)cc1 the results were TRPML1 agonist 0.2, Sfp PPTase inh 12%, TRPML1 blocker -5, ClpP mod -0.7%, Menin MLL FP FL 1.5, TRPV1 PAM -2 and PINK1 modulator 3.1%.
COc1ccc(CNC(=O)c2sc(=O)n(Cc3ccc(S(=O)(=O)N(C)C)cc3)c2C)cc1 was read as TRPML1 agonist 2.6, ClpP mod -1.4% and PINK1 modulator -0.3%.
`O=C(COc1ccc2c3c(c(=O)oc2c1)CCC3)N[C@@H](Cc1ccccc1)C(=O)O` gave Sfp PPTase inh 13%, ClpP mod 5.5%, Menin MLL FP FL 1.7, TRPV1 PAM 18 and PINK1 modulator 0.5%.
For CCOC(=O)Cc1csc(NS(=O)(=O)c2ccc(SC)cc2)n1 the results were TRPML1 agonist 4.6, Sfp PPTase inh 19%, TRPML1 blocker -5, Menin MLL FP FL -1.9, TRPV1 PAM 2 and PINK1 modulator -1.0%.
